StopGo reporter – FMDV 2A StopGo reporter, luciferase signal. human cells with a luciferase reporter of 2A StopGo recoding; control for the full effect not named in the record. Potency, µM (series often up to 57.9 µM), inactives show at the highest dose signal change, negative = less light. hit rate 1.2% among 410,000. AID 1159524; active = well fitted falling curve with a large enough effect; inconclusive = small, poorly fitted or top-dose-only effect; inactive = no such curve, though single readings can be large or run the other way; tested in HEK293T cells; further: on the % scale 0 is the no-effect control and ±100 the full control effect; nearly all actives have a fitted effect of over 45% in size; luciferase light after 4 h
RE007 growth inh – less growth of the S. pombe RE007 Vpr strain; hit rate 0.21% among 360,000; AID 651644; Potency, µM (doses to about 92.2 µM), without a hit: at the highest dose activity change, negative = less growth; S. pombe RE007 Vpr strain, BacTiter-Glo ATP luminescence, 24 h; control for the full effect not named in the record; active = well fitted falling curve with a large enough effect; inconclusive = small, poorly fitted or top-dose-only effect; inactive = no such curve, though single readings can be large or run the other way;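 further: on the % scale 0 is the no-effect control and ±100 the full control effect; nearly all actives have a fitted effect of over 50% in size; the assay follows cell death caused by Vpr and the record does not say whether a fall means rescue or toxicity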
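Fission yeast strain RE007, carrying one chromosomally integrated HIV-1 vpr copy, was seeded at OD 0.01 in PMG+AL medium with 23 nL pinned compound. After 24 h at 30 °C and 99% humidity, viability was read by BacTiter-Glo luminescence.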
LASV entry inh – Lassa virus entry inhibition; Lassa virus pseudotype entry inhibition, cell reporter; control for the full effect not named in the record; AID 540256; Potency, µM (top dose mostly 37.9 µM), inactives show at the highest dose activity change, negative = inhibition, usual class: inhibitors; hit rate 1.2% among 300,000; active means well fitted inhibition curve with a large enough effect; inconclusive means small, poorly fitted or top-dose-only effect, or effect the other way; inactive means flat fitted curve, though single readings scatter; tested in HEK293 cells; further: on the % scale 0 is the no-effect control and ±100 the full control effect; nearly all actives have a fitted effect of over 50% in size; luciferase read-out
Marburg entry inh – Marburg virus entry inhibition; Marburg virus pseudotyped entry inhibition, cell reporter; control for the full effect not named in the record; about a third of the inactives were read at about 46 µM; Potency, µM (titrated, usually from 37.8 µM), for inactives: at the highest dose activity change, negative = inhibition, hits mostly inhibitors; hit rate 1.8% among 300,000; AID 540276; active = well fitted inhibition curve with a large enough effect; inconclusive = small, poorly fitted or top-dose-only effect, or effect the other way; inactive = flat fitted curve, though single readings scatter; tested in HEK293 cells; about a fifth of its hits are not listed in these tables; further: on the % scale 0 is the no-effect control and ±100 the full control effect; luciferase read-out
Cruzain noTriton – inhibitors of Trypanosoma cruzi cruzain without detergent; Potency, µM, for inactives: max response, negative = inhibition, hits mostly inhibitors; hit rate 2.3% among 200,000; purified cruzain, Z-FR-AMC fluorescence, no detergent; P25779;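 further: plate controls were enzyme without inhibitor for no effect and buffer without enzyme for full effect; nearly all actives have a fitted effect of over 40% in size; top concentration of the series not given in the record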
Target sequence (P25779 123-467 limits assumed): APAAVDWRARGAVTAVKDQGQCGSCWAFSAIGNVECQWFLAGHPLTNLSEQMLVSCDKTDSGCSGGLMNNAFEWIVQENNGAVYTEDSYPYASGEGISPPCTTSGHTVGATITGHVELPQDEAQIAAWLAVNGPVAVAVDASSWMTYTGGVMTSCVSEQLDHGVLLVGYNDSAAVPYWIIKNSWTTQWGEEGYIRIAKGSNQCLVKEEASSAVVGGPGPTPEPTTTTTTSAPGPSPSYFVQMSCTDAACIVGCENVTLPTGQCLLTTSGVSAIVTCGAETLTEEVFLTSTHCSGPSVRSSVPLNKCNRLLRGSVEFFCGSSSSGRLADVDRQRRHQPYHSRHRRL
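Detergent-free condition (0.00005% Triton X-100) in acetate buffer pH 5.5 with DTT. 1.5 nM enzyme and compound were pre-mixed 15 min, then 2 uM Z-FR-AMC substrate added; reaction progress from fluorescence change between first and third reads (60 s).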
SARS PLP yeast – inhibitors of SARS-CoV papain-like protease in yeast; S. cerevisiae expressing SARS-CoV PLpro, growth rescue; control for the full effect not named in the record; Potency, µM (titrated, usually from 32.9 µM), without a hit: at the highest dose activity, positive = growth rescue; hit rate 0.19% among 330,000; active means well fitted rising curve with a large enough effect; inconclusive means small, poorly fitted or top-dose-only effect; inactive means no such curve, though single readings can be large or run the other way; further: 0% is about no effect; nearly all actives have a fitted effect of over 55% in size; growth read by luminescence after 48 h
Cruzain Triton – blocks cruzain activity in presence of Triton detergent | P25779 | purified cruzain, Z-FR-AMC fluorescence, 0.01% Triton | Potency, µM, for the others: max response, negative = inhibition, usual class: inhibitors | hit rate 0.43% among 200,000;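 further: plate controls were neutral wells for no effect and buffer without enzyme for full effect; nearly all actives have a fitted effect of over 40% in size; top concentration of the series not given in the record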
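15 min RT preincubation of 1.5 nM cruzain with compound, then 2 uM Z-FR-AMC added; kinetic AMC fluorescence, 60 s delta. Triton X-100 0.01%, pH 5.5.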
NS1 inh – influenza NS1 inhibition; S. cerevisiae slowed by influenza A NS1, growth recovery by OD600; Potency, µM (doses to about 46.1 µM), without a hit: at the highest dose activity, positive = more growth; hit rate 0.4% among 270,000; AID 2326; active means well fitted rising curve with a large enough effect; inconclusive means small, poorly fitted or top-dose-only effect; inactive means no such curve, though single readings can be large or run the other way; further: nearly all actives have a fitted effect of over 50% in size
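A cell-based growth assay was used: compounds that relieve NS1-induced slow growth of budding yeast raise OD600. Assay medium was yeast nitrogen base with ammonium sulphate and -URA supplement, pH 6.0, with 2% galactose.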
* marks the source's active call; other numbers are inactive results; u = inconclusive; x = no result given; & = joins results of further samples; [ ] = remark or other dose. Unless noted, the call rests on the fitted dose curve; in most records, active means well fitted curve in the direction sought with a large enough effect; inconclusive means small, poorly fitted or top-dose-only effect, or another doubt; inactive means no such curve, though single readings can be large; an effect the other way counts as inactive or inconclusive. Potency means the concentration at half of the fitted maximal effect.

Fields – StopGo reporter | RE007 growth inh | LASV entry inh | Marburg entry inh | Cruzain noTriton | SARS PLP yeast | Cruzain Triton | NS1 inh
[1] CCOC(=O)c1[nH]c(C)c(C(=O)Nc2cccc(Cl)c2C)c1C
  26% | 7% | -28% | -30% | -9% | -4% | 5.1% | -1%
[2] Cc1ccc(S(=O)(=O)NNC(=O)c2c(O)c3ccccc3[nH]c2=O)cc1
  -14% | 9% | x | x | x | 1% | x | 2%
[3] CCCN1CCN(C(=O)c2cc(COc3ccc(F)cc3F)on2)CC1
  1% | -20% | u | 12% | x | 1% | x | -11%
[4] CN(CCn1ccnc1)C(=O)CC1C(=O)NCCN1Cc1ccccc1C(F)(F)F (configuration not stated)
  9% | -1% | -1%[46.1 µM] | 19%[46.1 µM] | x | 0% | x | -1%
[5] O=C(NCCc1nc2ccccc2[nH]1)c1cc([N+](=O)[O-])cc([N+](=O)[O-])c1
  -12% | -6% | 13% | -2% | -4% | 23% | 3.5µM* | 4%
[6] C1=C(CCNc2nnnn2-c2ccccc2)CCCC1
  21% | -1% | 0% | -6% | -11% | -1% | 3.9% | -6%
[7] O=C(CCNc1ccc(Br)cc1)c1cccc([N+](=O)[O-])c1
  11% | u | -15% | 4% | x | -3% | x | 0%
[8] Cn1c(=O)c2c(nc(-n3ccnc3)n2Cc2ccc([N+](=O)[O-])cc2)n(C)c1=O
  -19% | -16% | 5% | 0%[46.1 µM] | 4% | -2% | -1.8% | 2%
[9] COC(=O)COc1ccc2c(-c3cccc([N+](=O)[O-])c3)cc(=O)oc2c1
  12% | 1% | 14% | 12% | -16% | 4% | 1.0% | 12%
[10] O=c1nc2ccccc2c2n1CC(CN1CCN(Cc3ccccc3)CC1)N2 (configuration not stated)
  u | -4% | -3% | u | 2% | 4% | 8.3% | -7%
[11] Cc1cccc(C(=O)OC(C)C(=O)N2CCc3ccccc3C2)c1C (configuration not stated)
  -18% | 6% | 1% | -20% | x | -8% | x | x
[12] COc1ccc(-n2ncc3c(N4CCN(Cc5ccccc5)CC4)ncnc32)cc1
  35µM* | -28% | u | u | x | -1% | x | x
[13] O=C(Cn1cnc2ccccc2c1=O)Nc1nnc(C2CC2)s1
  0% | 0% | 19% | u | 3% | -7% | -0.4% | 2%
[14] Cc1nc(COC(=O)c2ccc(S(=O)(=O)N3CCCC3)cc2)cs1
  -8% | 6% | 1% | 14%[46.1 µM] | -7% | -10% | 1.4% | -17%
[15] Cc1c(Cc2ccccc2)c(=O)oc2cc(OCC(=O)NCc3ccccn3)ccc12
  -29% | 4% | 1%[46.1 µM] | 13%[46.1 µM] | x | -8% | x | -6%
[16] CCOC(=O)C1(CC2CC2)CCN(C(=O)c2cc(C)nc3ccc(CC)cc23)CC1
  -14% | 5% | -21%[46.1 µM] | u | x | 0% | x | -7%
[17] Cc1cc(=O)[nH]c(SCc2nc3ccccc3c(=O)n2-c2ccccc2C)n1
  -30% | 6% | 6% | 0%[46.1 µM] | x | 0% | x | 3%
[18] CCOC(=O)c1oc2ccc(S(=O)(=O)n3nc(-c4ccc(C)cc4)cc3N)cc2c1C
  -9%&-8% | 4% | -4%[46.1 µM] | 22%[46.1 µM] | u | 4% | -0.8%&1.4% | 7%
[19] COCCn1c(SCC(=O)Nc2ccccc2OC)nc2ccccc21
  -28% | -12% | 9% | -5%[46.1 µM] | x | -2% | x | x
[20] Cc1ccc(C23CC4CC(CC(C(=O)NCC(=O)O)(C4)C2)C3)cc1
  -12% | -8% | x | x | x | 3% | x | 2%
[21] O=C(OCC(=O)N1CCN(C(=O)c2ccco2)CC1)c1cc(S(=O)(=O)Nc2ccc(Cl)cc2)ccc1O
  -7% | -4% | x | 1%[46.1 µM] | x | 3% | x | -23%
[22] COc1ccccc1C(O)P(=O)(OCC(C)C)c1ccc(N(C)C)cc1 (configuration not stated)
  13% | 13% | x | x | x | 2% | x | 6%
[23] CC(C)OC(=O)CSc1nnc(Cc2ccccc2)n1Cc1ccco1
  -14% | 5% | -1% | 21% | 6% | 1% | -0.9% | -11%
[24] COc1ccc(NC(=O)C2CCCN2S(=O)(=O)c2ccc3c(c2)CCC(=O)N3)cc1Cl (configuration not stated)
  u | -6% | x | 6% | 2% | 2% | -1.8% | -15%
[25] Cc1ccc(S(=O)(=O)N2CCN(C(=O)CCNC(=O)c3ccccc3Cl)CC2)cc1
  -18% | 2% | u | 9% | x | -5% | x | x
[26] COc1ccc(CCNCc2ccc(OCc3ccccc3)cc2)cc1
  12% | 8% | u | u | x | -5% | x | -55%
[27] N#Cc1c(-c2ccccc2)c(-c2ccccc2)n[nH]c1=O
  -27% | 3% | x | x | x | 2% | x | -50%
[28] CC(=O)N1CCN(C(=O)CCc2cc(C(C)(C)C)c(O)c(C(C)(C)C)c2)CC1
  32%[activator] | 35% | 18% | -21% | x | 1% | x | 13%
[29] Cc1ccc(-n2c(SCC3CNC(=O)O3)nnc2-c2ccccc2)cc1C (configuration not stated)
  x | x | -24% | 0% | 5% | -1% | 0.2% | -10%
[30] COC(=O)c1[nH]nc(-c2ccccc2)c1-c1ccccc1
  0% | 11% | -8% | -20%[46.1 µM] | x | x | x | x
[31] CCOC(=O)c1ccc(NC(=O)N(CC)CC)cc1
  46%[activator] | -1% | 9% | -5% | 4% | 1% | 3.8% | -4%
[32] CC(C)CNc1nc(Oc2ccc(OCC(N)=O)nn2)nc(N2CCOCC2)n1
  -12% | x | -1%[46.1 µM] | -2%[46.1 µM] | -1% | x | 0.1% | x
[33] NC(=O)c1ccsc1NC(=O)c1ccc2c(c1)CCCC2
  -42% | u | u | u | u | -71% | -12% | -51%
[34] O=C(O)CSCC(=O)Nc1cccc(C(F)(F)F)c1
  3% | 5% | 9% | 1% | -4% | 0% | 0.1% | 5%
[35] O=C1NC2(CCc3ccccc3C2)C(=O)N1CCOc1cccc(Cl)c1 (configuration not stated)
  -19% | 7% | 8% | 20% | 4% | -28% | -7.3% | -30%
[36] O=C1CC(SCc2nc3ccccc3[nH]2)C(=O)N1c1ccc(F)c(Cl)c1 (configuration not stated)
  -3% | -5%[3.69 µM] | 14% | 3% | 16µM* | -49% | -19% | -27%
[37] CC1CC1C(=O)OCC(=O)Nc1ccc2[nH]c(=O)[nH]c2c1 (configuration not stated)
  35%[activator] | 7% | x | x | x | 0% | x | 7%
[38] Cc1ccc(S(=O)(=O)N2CCN(CC(=O)N/N=C/c3cc([N+](=O)[O-])ccc3Cl)CC2)cc1
  -23% | -8% | 0% | -1% | -9% | 9% | -1.8% | 22%
[39] Cc1ccc(S(=O)(=O)NC(CC(=O)N2CCOCC2)c2ccco2)cc1 (configuration not stated)
  -8% | 23% | -3% | 18% | 1% | 3% | 2.4% | -1%
[40] COc1ccc(NC(=O)CN(C)C(=O)c2cc(-c3ccc(C)o3)nc3ccccc23)cc1
  -2% | -22% | u | -28% | x | -8% | x | x
[41] CCNC(=O)COc1ccc(-c2ccccc2)cc1
  76%[activator] | -8% | u | u | u | -2% | 0.2% | 7%
[42] CCn1c(C)c(P(c2ccccc2)c2ccccc2)[n+]2ccccc12
  u | 0% | -12% | u | x | 1% | x | x
[43] Cc1ccc2oc(=O)c3cc(C(=O)NCCCN4CCCCCC4)sc3c2c1
  -7% | -2% | 4%[46.1 µM] | u | x | 8% | x | u
[44] Cc1cc(NC(=O)CSc2nnc(NC(=O)C3CC(=O)N(c4ccccc4C)C3)s2)no1 (configuration not stated)
  -8% | -20% | 5% | u | -3% | 17% | -11% | 24%
[45] CCCn1c(C(CO)Nc2nc(-c3cccc(Br)c3)cs2)nc2ccccc21 (configuration not stated)
  -15% | -1% | x | x | x | 1% | x | -91%
[46] CCOC(=O)CN1Cc2cccc(C(=O)O)c2C1=O
  -6% | 7% | x | -3% | -4% | 6% | 1.0% | -7%
[47] O=c1[nH]c2cc3ccccc3cc2nc1C(F)(F)F
  6% | -27% | u | -3% | x | -1% | x | x
[48] Cc1ccccc1S(=O)(=O)Cc1ccc(C(=O)NC2CCCC2)o1
  -3% | 0% | 13%[46.1 µM] | -6%[46.1 µM] | x | -5% | x | -1%
[49] CCc1ccc(CN2CCCC(CCC(=O)N3CCN(c4ccccn4)CC3)C2)o1 (configuration not stated)
  -11% | -10% | x | x | x | -5% | x | 1%
[50] CCN(CC)CCCNC(=S)Nc1ccc(Br)cc1
  6% | -1% | -5%[46.1 µM] | u | x | -3% | x | -5%
[51] CCOc1ccc2nc(NC(=O)c3nc(SCc4ccc(C)cc4)ncc3Cl)sc2c1
  u | x | 27%[46.1 µM] | 1%[46.1 µM] | 4% | x | 0.7% | x
[52] CCS(=O)(=O)N1CCc2cc(C(=O)Nc3cccc(C)c3C)ccc21
  12% | x | u | 0%[46.1 µM] | -8% | x | -4.1% | x
[53] CCOC(=O)c1c(C)n(C)c2ccc(OC)c(NC(=O)CN3CCN(C(=O)c4ccco4)CC3)c12
  -11% | 8% | -1% | 8% | -2% | 1% | 4.1% | -11%
[54] O=C1C(=O)N(CCCN2CCOCC2)C(c2ccc([N+](=O)[O-])cc2)/C1=C(/O)c1ccc2c(c1)OCO2 (configuration not stated)
  -9% | -6% | 14%[46.1 µM] | 24%[46.1 µM] | x | -3% | x | 7%
[55] COc1cc(NC(=O)C2CC(c3ccccc3O)=NO2)c(OC)cc1Cl (configuration not stated)
  -14% | -6% | -12%[46.1 µM] | u | x | 0% | x | -2%
[56] COc1ccc(N2CCN(C(=O)CN(c3ccccc3)S(=O)(=O)c3ccc(OC)cc3)CC2)cc1
  -27% | -8%[3.69 µM] | -14% | -2% | u | 7% | -2.3% | 1%
[57] Cc1ccc(C)c(S(=O)(=O)N2CCCCC2CCNC(=O)C(=O)NCc2cccnc2)c1 (configuration not stated)
  u | -14% | -14% | u | x | -8% | x | x
[58] COc1ccc(NC(=O)CN(C)CC(=O)NC2CCCCC2C)cc1 (configuration not stated)
  -2% | -17% | -8% | 12% | x | -10% | x | x
[59] Cc1ccc(-n2c3nc(=O)n(C)c(=O)c-3cc3ccccc32)c(C)c1
  -3% | x | 11%[46.1 µM] | 5%[46.1 µM] | -10% | x | 8.2% | x

From PubChem BioAssay
